Source: PubChem
HSV replic up: HSV replication enhancement; actives 0.005% (n = 220,000); AID 1956; HSV replication augmentation in cells, fold increase; maximum fold increase;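 active = peak rise of 1.5-fold or more in the series; tested in PC3 cells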;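 also: first round at 10 µM; read as green reporter fluorescence; hits show the peak of a series up to 25 µM; 1 = signal of infected wells without compound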
PKD1 kinase inh: PKD1 (human) kinase inhibition | inhibition, %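 (about 10 µM by stock and volumes)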 | AID 797 | PKD1 kinase fluorescence polarization assay | actives 0.056% (n = 200,000);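 active = inhibition of 50% or more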;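 also: controls were vehicle for no effect and a reference inhibitor for full effect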
GALR2 agonist: agonists of human galanin receptor 2 (GALR2). GALR2-expressing cells, agonist activation read-out. activation, %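 (tested at 5 µM)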. actives 0.48% (n = 140,000);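 active = above mean plus 3 SD of all compounds, about 5% in these data, not always enough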;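 also: 0% = vehicle buffer wells and 100% = reference agonist at full effect; tested in CHO reporter cells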
Target sequence (O43603 whole entry, looked up): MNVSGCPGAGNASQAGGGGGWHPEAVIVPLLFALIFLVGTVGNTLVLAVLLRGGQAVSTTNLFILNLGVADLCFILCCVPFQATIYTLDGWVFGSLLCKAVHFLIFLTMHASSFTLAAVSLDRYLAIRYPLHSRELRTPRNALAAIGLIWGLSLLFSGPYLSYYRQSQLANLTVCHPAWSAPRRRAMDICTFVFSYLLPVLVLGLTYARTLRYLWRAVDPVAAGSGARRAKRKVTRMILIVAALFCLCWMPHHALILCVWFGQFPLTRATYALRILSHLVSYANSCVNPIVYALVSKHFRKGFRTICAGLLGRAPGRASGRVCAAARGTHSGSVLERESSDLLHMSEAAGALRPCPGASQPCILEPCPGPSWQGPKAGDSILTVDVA
INS promoter inh: TRM-6 insulin promoter activity inhibition | TRM-6 cells (human fetal islet line), insulin promoter-eGFP reporter, imaging; reporter expression induced with tamoxifen | inhibition, % at 2 µM | actives 0.9% (n = 130,000) | AID 1273;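 active = inhibition above the mean plus 3 SD, with well images judged a real hit on visual review, cut at about 60% in these data, passing the limit was not always enough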
RGS16-Gao: regulators of human RGS16-Galphao interaction; bead-based flow cytometry RGS16-Galphao binding, fluorescence; actives lie on both sides; binding response (% of control), % at 10 µM; actives 0.38% (n = 220,000);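 active = below 25% or above 175%, edge rows of some plates excepted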;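 also: Galphao activated by GDP with aluminum fluoride before binding; 100% = wells without compound and 0% = beads without RGS; some results beyond the cut were filed as inactive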
Target sequence (O15492 whole entry, looked up): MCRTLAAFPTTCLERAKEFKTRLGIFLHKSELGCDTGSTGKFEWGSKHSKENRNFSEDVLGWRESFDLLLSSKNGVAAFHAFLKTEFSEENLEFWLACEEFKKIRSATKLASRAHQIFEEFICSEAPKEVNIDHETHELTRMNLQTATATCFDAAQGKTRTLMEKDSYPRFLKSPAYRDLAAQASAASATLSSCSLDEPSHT
Target sequence (P09471 whole entry, looked up): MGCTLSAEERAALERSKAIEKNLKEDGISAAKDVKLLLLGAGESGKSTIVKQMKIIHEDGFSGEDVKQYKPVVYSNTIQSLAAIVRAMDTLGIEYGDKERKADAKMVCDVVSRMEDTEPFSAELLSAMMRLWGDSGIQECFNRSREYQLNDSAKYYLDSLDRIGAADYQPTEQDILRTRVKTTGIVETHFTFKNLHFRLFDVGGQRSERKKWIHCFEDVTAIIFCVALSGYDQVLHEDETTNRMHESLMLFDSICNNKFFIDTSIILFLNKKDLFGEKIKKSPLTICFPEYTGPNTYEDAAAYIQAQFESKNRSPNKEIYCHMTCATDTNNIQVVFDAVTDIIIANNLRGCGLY
INS promoter inh cell count: second read-out of INS promoter inh, no call of its own (marks repeat the call); normalized cell count, %; measured here: cell count, toxicity; reference of the scale not given here;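 cells exposed to compound for 48 h; stained nuclei by imaging scaled within each plate; lower means fewer cells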
HSV replic up primary fold: also measured in HSV replic up; calls as there; fold increase; compound at 10 µM; measured here: primary screen fold increase 10 uM; tested in PC3 cells;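 GFP signal in the first replicate; 1 = infected wells without compound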
Active calls of the source: *; i = inactive; . = no result given.

SMILES	HSV replic up	HSV replic up primary fold	PKD1 kinase inh	GALR2 agonist	INS promoter inh	INS promoter inh cell count	RGS16-Gao
CCCn1cc(C(CC(=O)O)C(=O)O)c2ccccc21 (configuration not stated)	i	1.1	-1	-1.1	4	106	108
COc1c(C)cc(Br)cc1C(=O)NC(=S)Nc1ccc(Cl)c(C(=O)O)c1	i	0.95	-3	.	20	114	94
COc1ccc(NC(=O)C(OC(=O)c2ccc([N+](=O)[O-])o2)c2ccccc2)cc1Cl (configuration not stated)	i	0.83	0	-1.7	0	133	107
Cc1nc(C)n(CC(=O)N2CCCC(C(=O)c3cccc4ccccc34)C2)n1 (configuration not stated)	i	0.94	-7	.	.	.	103
Nc1nonc1C(=O)OCC(=O)c1ccc(Cl)cc1	i	1.1	6	-1.1	0	78	58
COc1cccc(C(=O)Nc2nc(C)cs2)c1	i	1	2	-0.7	-18	39	97
COc1ccc(N2C(=O)/C(=C/c3cccs3)NC2=S)cc1	i	0.94	-5	-0.1	6	91	49
CCOC(=O)c1c(-c2cccc(C)c2)csc1NC(=O)c1c(-c2ccccc2)noc1C	i	0.93	-2	-0.9	-20	78	101
O=c1[nH]c2ccc(S(=O)(=O)Nc3ccc(-c4nnc5n4CCCCC5)cc3)cc2o1	i	1.2	-2	-1.2	.	.	110
O=C(NC(=S)Nc1ccc(CN2CCOCC2)cc1)c1ccc(-c2cccc(Cl)c2)o1	i	0.79	.	.	.	.	112
CC1(C)C2([N+](=O)[O-])CN3CC1([N+](=O)[O-])CN(C2)C31CCCC1	i	0.91	-9	-0.7	-43	78	99
O=C(Cc1ccccc1)NC1CCN(C(=O)NCc2ccccc2)CC1	i	0.96	-4	-0.7	4	170	92
CC1=NN(Cc2ccccc2)C(=O)/C1=C/c1ccc(N(C)C)cc1	i	0.65	-9	-3.9	.	.	95
O=C(Nc1ccc(-c2cnco2)cc1)c1ccc(F)cc1F	i	0.85	.	.	.	.	103
COc1ccc(S(=O)(=O)N2CCN(c3cccc(C)c3C)CC2)cc1	i	0.73	-16	-0.8	.	.	101
CCOc1ccc(C(=O)OCC(=O)NCc2ccco2)cc1OCC	i	1	6	-1.4	-3	151	98
CC(C)S(=O)(=O)c1csc(NC(=O)Nc2ccc(Cl)cc2)c1Cl	i	0.9	.	.	.	.	93
CCCC(=O)c1ccc(N2CCC(C)CC2)c(F)c1	i	1	10	-0.9	-46	69	87
O=C(Nc1ccc2c(c1)ncn2-c1ccccc1)c1ccco1	i	0.92	3	-2.0	0	105	97
O=C(COC(=O)C1CCC1)Nc1ccc(Oc2ccccc2)cc1	i	0.99	4	-0.4	8	95	104
COc1ccccc1OCC(O)CO (configuration not stated)	i	0.84	-3	.	-40	122	83
CC1(C)CC(=O)C2=C(C1)Nc1cc3c(cc1C2c1ccc2c(c1)OCO2)OCO3 (configuration not stated)	i	1.2	-2	-2.1	.	.	105
CCCCOc1c(C(=O)Nc2ccccc2)nnn1-c1ccccc1	i	0.93	2	.	.	.	99
COc1cc(OC)cc(-n2nnnc2SCC(=O)Nc2nc3c(s2)CCCC3)c1	i	0.97	-3	-3.3	-29	125	84
C=CCn1c(C)cc(C(=O)CSc2n[nH]c(N)n2)c1C	i	0.92	4	-3.6	-6	212	100
CC1(C)CC(=O)C/C(=N\NC(=O)Cc2ccccc2)C1	i	0.92	10	-0.6	-9	148	85
CSc1nncc(/C(C)=N\Nc2ccccc2)n1	i	0.9	6	-0.2	.	.	93
CC(C)OCC(O)CN1CCN(CC(O)COc2ccc3c(c2)OCO3)CC1 (configuration not stated)	i	1.1	2	-0.8	63	83	111
O=C(CSc1nc(N2CCCCC2)nc(N2CCCCC2)n1)N1CCc2ccccc21	i	0.86	1	-0.8	-342	48	105
Cc1ccc(NC(=O)c2ccc(-c3nn(C)c(=O)c4ccccc34)cc2)cc1	i	0.73	-3	-3.0	36	123	103
COc1ccc2cc(C(=O)NCc3ccccc3)c(=Nc3ccc(C(=O)O)cc3)oc2c1	i	0.78	-5	.	.	.	106
Cc1nnc(SCC(=O)NC2CC2)n1CCc1ccccc1	i	1	-11	-1.0	12	106	116
CCCNC(=O)c1ccc2c(c1)ncn2-c1ccccc1OC	i	0.91	-8	-1.2	.	.	106
C/C(=N\NC(=O)CSCc1ccccc1Cl)c1cc(O)ccc1O	i	0.86	-9	.	.	.	102
COC(=O)/C=C/c1ccc2c(c1)OCO2	i	0.96	-1	.	-4	107	97
Cc1nc2cc(-c3cccc(F)c3)nn2c(C)c1CCC(=O)N1CCN(c2ccccn2)CC1	i	0.98	.	.	.	.	114
CC(=O)NC1CCC(C(=O)O)(c2ccccc2)C1 (configuration not stated)	i	0.95	-3	-2.1	9	99	98
Cc1ccc(S(=O)(=O)N(CC(=O)NCc2ccco2)C2CCCCC2)cc1	i	0.94	6	-1.1	38	84	118
COC(=O)C(Cc1ccc(O)cc1)NC(=O)C(CC(=O)OC(C)(C)C)NC(=O)OC(C)(C)C (configuration not stated)	i	1.1	10	.	.	.	103
CC(NC(=O)COC(=O)Cc1ccsc1)c1ccccc1 (configuration not stated)	i	0.88	-2	-1.0	-7	127	107
O=C(C[n+]1cc(-c2ccc(Cl)cc2)n2c1CCC2)N1c2ccccc2Sc2ccccc21	i	0.93	15	-1.0	29	88	108
O=c1oc(-c2ccco2)nc2c1cnn2-c1ccccc1	i	1	-3	0.3	.	.	97
COCCOC(=O)c1[nH]c2c(c1C)C(=O)CC(c1ccc(N(C)C)cc1)C2 (configuration not stated)	i	0.92	-6	-2.8	6	53	103
CC(C)(C)c1ccc(CN2N=Nc3ccccc3S2(=O)=O)cc1	i	0.66	-7	-0.3	46	60	102
CC(O)c1nc2ccc(Cc3ccc4nc(C(C)O)[nH]c4c3)cc2[nH]1 (configuration not stated)	i	1	0	-0.3	36	108	114
COc1cc(NC(=O)COc2c(C)cc(C)cc2[N+](=O)[O-])c(OC)cc1Cl	i	0.71	5	-1.0	.	.	97
CCOc1cc(/C=N/NC(=O)CN(CCc2ccccc2)S(=O)(=O)c2ccc(NC(C)=O)cc2)ccc1O	i	0.97	2	0.0	20	102	75
COC(=O)C(CCSC)NC(=O)C(NC(=O)C1CCC(C)CC1)C(C)C (configuration not stated)	i	0.89	-4	0.2	.	.	103
Nc1nc(-c2ccccc2)nc(-c2ccccc2O)n1	i	1.1	-4	-0.5	-21	44	.
CCOC(=O)C1CCCN(S(=O)(=O)c2ccc(F)c(C(=O)Nc3ccc(F)c(F)c3)c2)C1 (configuration not stated)	i	0.77	0	-2.9	35	107	97
The results go on.
SMILES	HSV replic up	HSV replic up primary fold	PKD1 kinase inh	GALR2 agonist	INS promoter inh	INS promoter inh cell count	RGS16-Gao
O=C(c1cc2cc([N+](=O)[O-])ccc2oc1=O)n1cccn1	i	0.97	-2	.	.	.	95
Cc1cc(NC(=O)COC(=O)COc2ccc3c(c2)CCC3)no1	i	0.99	-2	-2.3	-9	101	104
CCOc1ccc(NC(=O)c2oc3ccccc3c2NC(=O)CC)cc1	.	.	-16	-1.2	50	196	94
Nc1nnc(SCc2ccc3c(c2)OCO3)s1	i	1	-3	-2.8	-69	93	85
Cc1ccc(C)c(Cn2cnc3c(cnn3C(C)(C)C)c2=O)c1	i	1.1	-21	-1.9	33	111	102
COc1ccc(C(=O)Nc2cccc(-c3ccc4nncn4n3)c2)cc1OC	i	0.92	-5	.	17	199	104
Cc1cc(Br)ccc1OCCn1ccnc1	i	1	3	-1.5	-15	72	105
Cc1ccc(O)c(C(=O)c2cnn(-c3ccc(S(=O)(=O)N4CCOCC4)cc3[N+](=O)[O-])c2)c1	.	.	-7	-2.0	-8	107	49
CCOC(=O)C1(Cc2ccc(OC)cc2)CCN(C(=O)c2sc(C)nc2C)CC1	i	0.97	-2	.	40	61	98
CC(C)OP(=O)(OC(C)C)C(Nc1ccccc1)c1cccc2c1OCO2 (configuration not stated)	i	0.99	-1	-1.3	.	.	105

Single records (already shown). Order of values: HSV replic up, HSV replic up primary fold, PKD1 kinase inh, GALR2 agonist, INS promoter inh, INS promoter inh cell count, RGS16-Gao
Cc1ccc(C)c(Cn2cnc3c(cnn3C(C)(C)C)c2=O)c1 as listed: i, 1.1, -21, -1.9, 33, 111, 102
CC(C)OP(=O)(OC(C)C)C(Nc1ccccc1)c1cccc2c1OCO2 (configuration not stated) as listed: i, 0.99, -1, -1.3, ., ., 105
CCOC(=O)C1(Cc2ccc(OC)cc2)CCN(C(=O)c2sc(C)nc2C)CC1 as listed: i, 0.97, -2, ., 40, 61, 98
Cc1ccc(O)c(C(=O)c2cnn(-c3ccc(S(=O)(=O)N4CCOCC4)cc3[N+](=O)[O-])c2)c1 as listed: ., ., -7, -2.0, -8, 107, 49

(more compounds)
SMILES	HSV replic up	HSV replic up primary fold	PKD1 kinase inh	GALR2 agonist	INS promoter inh	INS promoter inh cell count	RGS16-Gao
C=CCN(C(=O)c1cccc(S(=O)(=O)N2CCN(C)CC2)c1)c1nc(-c2ccccc2)cs1	i	0.86	0	-1.0	11	57	110
CCCc1cc(=O)n2[nH]c(SCc3ccccc3)nc2n1	i	0.75	-1	-1.9	.	.	105
Cc1cc(C(=O)COC(=O)c2cccs2)c(C)n1-c1c(C)n(C)n(-c2ccccc2)c1=O	i	0.95	0	-0.9	-48	125	99
COc1cc(-c2cc(=O)c3c(O)c(OC)c(OC)c(O)c3o2)ccc1O	i	0.73	15	.	.	.	94
O=C(CCN1CCN(C/C=C/c2ccccc2)CC1)Nc1cccc(F)c1	i	1	-2	.	.	.	103
O=C(COC(=O)c1cccc(S(=O)(=O)N2CCCCC2)c1)NC1CCCc2ccccc21 (configuration not stated)	i	1.1	-3	-0.1	3	113	98
O=C(Nc1ccccc1)c1ccc(NCc2cccnc2)c(S(=O)(=O)N2CCOCC2)c1	i	1.1	-6	-1.8	45	131	104
COc1ccc2nc(NC(=O)CSc3nccc(C)n3)sc2c1	i	0.95	-7	0.0	33	41	109
CCn1cc(C(=O)NC2CCc3ccccc32)c(=O)c2ccc(C)nc21 (configuration not stated)	i	1	4	0.1	-23	26	99
O=C(Cn1nc(-c2ccccc2)c2ccccc2c1=O)NCC1CCCO1 (configuration not stated)	i	0.87	5	-3.6	-32	86	101

Sorted by value in PKD1 kinase inh (highest first): 3 from the list above.
SMILES,HSV replic up,HSV replic up primary fold,PKD1 kinase inh,GALR2 agonist,RGS16-Gao
Cc1cc(C(=O)COC(=O)c2cccs2)c(C)n1-c1c(C)n(C)n(-c2ccccc2)c1=O,i,0.95,0,-0.9,99
O=C(CCN1CCN(C/C=C/c2ccccc2)CC1)Nc1cccc(F)c1,i,1,-2,.,103
O=C(Nc1ccccc1)c1ccc(NCc2cccnc2)c(S(=O)(=O)N2CCOCC2)c1,i,1.1,-6,-1.8,104

Additional results follow:
SMILES	HSV replic up	HSV replic up primary fold	PKD1 kinase inh	GALR2 agonist	INS promoter inh	INS promoter inh cell count	RGS16-Gao
Oc1ccccc1C(Nc1nccs1)c1ccc2cccnc2c1O (configuration not stated)	i	0.94	.	.	.	.	106
CCOC(=O)c1cc2sccc2n1CC(=O)N1CCc2ccccc21	i	0.83	4	-2.7	.	.	105
Cn1cnnc1SCC(=O)Nc1ccccc1Oc1ccccc1	i	0.99	0	.	.	.	97
CCOC(=O)c1cnc(SCc2nc(N)nc(Nc3ccc(C)cc3)n2)nc1N	i	0.78	-4	-0.4	62	109	109
Cc1cc(Nc2ccc(F)cc2Cl)n2ncnc2n1	i	0.87	-6	-1.2	.	.	105
CCSCc1nc2ccccn2c1Br	i	1.2	-1	.	76*	134*	95
CCc1nnc(NC(=O)CSc2nnc(-c3ccoc3C)n2-c2ccccc2)s1	i	1.1	-2	0.5	81*	99*	93
Cc1[nH]ccc(=O)c1Oc1ncc(C(F)(F)F)cc1Cl	.	.	-1	.	23	126	101
CCOC(=O)N1CCN(C(=O)c2ccc3nc(SCc4ccc(F)cc4)n(C)c3c2)CC1	.	.	13	-1.6	.	.	101
CC(=O)N1CCN(c2ccc(NCc3ccc(C)cc3)cc2)CC1	i	1.1	1	-0.9	.	.	99
Cn1ccnc1C(O)c1cc(C(C)(C)C)c(O)c(C(C)(C)C)c1 (configuration not stated)	i	0.99	-10	-0.5	.	.	105
C=CCn1c(COc2ccccc2)nnc1SCC(=O)O	i	0.87	2	1.0	.	.	104
C/C(=N\NC(=O)CSCc1ccc(Cl)cc1)c1ccc2c(c1)OCCO2	i	0.83	-7	-1.2	41	111	103
O=C(NNC(=O)c1ccc(Cl)cc1Cl)c1cnccn1	i	0.98	.	.	.	.	108
CCCC1Cc2[nH]c(=O)c(C#N)cc2CO1 (configuration not stated)	i	0.98	.	.	.	.	100
CC(C)N1CCC(N2CCN(C/C=C/c3ccccc3)CC2CCO)CC1 (configuration not stated)	i	0.96	12	.	-25	105	103
CCOC(=O)N1CCN(C(=O)c2ccccc2N(Cc2ccccc2)S(=O)(=O)c2ccc(OC)cc2)CC1	i	0.87	-4	.	.	.	104
CC(=O)Nc1ccc([N+](=O)[O-])cn1	i	0.98	-3	-2.1	-8	99	99
COc1ccc(C(=O)NCC(c2cccnc2)N2CCN(c3ccccc3)CC2)cc1OC (configuration not stated)	i	0.85	-6	-0.8	-70	168	102
